Yeast UUG start – yeast start codon fidelity modulation | AID 602363 | actives 0.13% (n = 350,000) | S. cerevisiae UUG-firefly luciferase reporter, luminescence/redox ratio | activity score, % at 18.7 µM;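 active = replicate mean at a twofold rise or more, about +100% in these data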;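 note: firefly luciferase made from a UUG start codon reports start codon fidelity; reporter light over untreated wells divided by growth signal over untreated wells; some hits fall short of that in this replicate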
HIV Env fusion – inhibitors of HIV Env-mediated cell fusion. inhibition, % at 12.3 µM. AID 651610. actives 1.1% (n = 360,000). HeLa-JRFL Env/CEM21 cell fusion, luciferase;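 active = mean replicate inhibition score of at least 50 and every replicate individually at or above 50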;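 note: 0% = plate neutral controls and 100% = maraviroc near 300 nM; one replicate is shown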
Starred values were filed as active, the others as inactive; & = joins results of further samples; [ ] = remark or other dose.

Every second line gives: Yeast UUG start	HIV Env fusion
- Cc1noc(C)c1NC(=O)Nc1cccc2c1O[C@H](CN(C)Cc1ccc(Oc3ccccc3)cc1)[C@@H](C)CN([C@@H](C)CO)C2=O
→ 1.2	5.9[16.7 µM]
- C[C@H]1CCCCO[C@@H](CN(C)S(C)(=O)=O)[C@@H](C)CN([C@@H](C)CO)C(=O)c2cc(N(C)C)ccc2O1
→ -17.7	-14.5[16.7 µM]
- CC(C)NC(=O)N(C)C[C@H]1Oc2cc(-c3cncnc3)ccc2S(=O)(=O)N([C@@H](C)CO)C[C@@H]1C
→ 5.5	-50.7[16.7 µM]
- COc1ccc(S(=O)(=O)Nc2cccc3c2O[C@@H](CN(C)C(=O)Nc2ccc(C(F)(F)F)cc2)[C@@H](C)CN([C@H](C)CO)C3=O)cc1
→ 4.1	2.3[16.7 µM]
- Cc1ccc(S(=O)(=O)Nc2ccc3c(c2)C(=O)N([C@@H](C)CO)C[C@H](C)[C@H](CN(C)Cc2ccccc2)OCCCC[C@H](C)O3)cc1
→ 12.0	52.5[16.7 µM]
- C[C@@H]1CCCCO[C@@H](CN(C)S(C)(=O)=O)[C@@H](C)CN([C@@H](C)CO)C(=O)c2cc(NS(=O)(=O)c3ccc(F)cc3)ccc2O1
→ 23.2	19.1[16.7 µM]
- C[C@@H]1CCCCO[C@H](CN(C)C(=O)c2ccncc2)[C@H](C)CN([C@@H](C)CO)C(=O)c2cc(NS(=O)(=O)c3ccc(Cl)cc3)ccc2O1
→ 10.7	-11.3[16.7 µM]
- Cc1noc(C)c1NC(=O)Nc1cccc2c1O[C@@H](CN(C)Cc1ccc3c(c1)OCO3)[C@H](C)CN([C@@H](C)CO)C2=O
→ 3.2	-44.2[16.7 µM]
- C[C@H](CO)N1C[C@H](C)[C@H](CN(C)C(=O)c2cccc(F)c2)Oc2cc(-c3cccc(F)c3)ccc2S1(=O)=O
→ 3.3	20.9[16.7 µM]
- C[C@H]1CCCCO[C@@H](CN(C)Cc2ccccc2)[C@@H](C)CN([C@@H](C)CO)C(=O)c2cc(NC(=O)Nc3ccccc3)ccc2O1
→ 9.0	68.9*[16.7 µM]
- CCC(=O)N(C)C[C@@H]1Oc2ncc(C#CCc3ccccc3)cc2C(=O)N([C@@H](C)CO)C[C@H]1C
→ 12.6	6.4[16.7 µM]
- O=C(Nc1ccc(Cl)c(Cl)c1)N[C@@H]1CC[C@H](CCn2cc(C3CC3)nn2)O[C@@H]1CO
→ 9.2	7.7[16.7 µM]
- C[C@H]1CN([C@@H](C)CO)C(=O)c2cc(NC(=O)Nc3ccccc3)ccc2O[C@@H]1CN(C)Cc1ccncc1
→ -5.8	-0.9[16.7 µM]
- C[C@@H]1CN([C@@H](C)CO)C(=O)Cc2cc(NS(C)(=O)=O)ccc2O[C@H]1CN(C)S(=O)(=O)c1ccc(Cl)cc1
→ -14.7	-33.5[16.7 µM]
- COc1ccc(NC(=O)N(C)C[C@@H]2OCCCC[C@@H](C)Oc3ccc(NC(=O)Nc4ccc(F)cc4)cc3C(=O)N([C@@H](C)CO)C[C@H]2C)cc1
→ -7.6	-10.6[16.7 µM]
- C[C@@H]1CN([C@H](C)CO)C(=O)c2cc(NC(=O)Nc3ccccc3)ccc2O[C@@H](C)CCCCO[C@H]1CN(C)C(=O)Cc1ccccc1
→ 1.6	25.6[16.7 µM]
- C[C@H](CO)N1C[C@H](C)[C@@H](CN(C)CC2CCCCC2)Oc2c(NC(=O)c3ccc(-c4nccs4)cc3)cccc2C1=O
→ 8.9	20.2[16.7 µM]
- CCCNC(=O)N(C)C[C@@H]1Oc2ncc(-c3ccccc3F)cc2C(=O)N([C@H](C)CO)C[C@@H]1C
→ 10.6	2.6[16.7 µM]
- CCCNC(=O)N[C@@H]1C=C[C@@H](CC(=O)NC2CCCCC2)O[C@H]1CO
→ 2.5	8.5[16.7 µM]
- C[C@@H]1CN([C@H](C)CO)C(=O)CCCn2cc(nn2)CO[C@H]1CN(C)C(=O)Nc1ccc(N2CCCCC2)cc1
→ 0.1	9.3
- CCCN(C)C[C@H]1OCCCC[C@@H](C)Oc2ccc(NS(=O)(=O)c3ccccc3)cc2C(=O)N([C@H](C)CO)C[C@H]1C
→ 14.7	-22.6[16.7 µM]
- C[C@@H]1CN([C@@H](C)CO)C(=O)Cc2cc(NC(=O)Cn3cnnn3)ccc2O[C@@H]1CN(C)C(=O)Nc1ccc2c(c1)OCO2
→ -8.4	9.2[16.7 µM]
- C[C@H](CO)N1C[C@H](C)[C@@H](CN(C)Cc2ccc(C(F)(F)F)cc2)Oc2ccc(NC(=O)c3ccncc3)cc2CC1=O
→ -1.2	9.5[16.7 µM]
- C[C@@H]1CN([C@@H](C)CO)C(=O)c2cc(NC(=O)Nc3ccc(C(F)(F)F)cc3)ccc2O[C@@H](C)CCCCO[C@@H]1CN(C)Cc1ccc2c(c1)OCO2
→ 1.3	18.1[16.7 µM]
- C[C@@H]1CCCCO[C@@H](CN(C)CC2CCCCC2)[C@H](C)CN([C@H](C)CO)C(=O)c2cc(NS(=O)(=O)c3cn(C)cn3)ccc2O1
→ -4.1	-8.0[16.7 µM]
- COc1ccc(S(=O)(=O)Nc2ccc3c(c2)C(=O)N([C@H](C)CO)C[C@@H](C)[C@H](CN(C)S(=O)(=O)c2ccccc2)O3)cc1
→ 6.9	-4.2[16.7 µM]
- C[C@@H]1CCCCO[C@@H](CN(C)S(=O)(=O)c2cn(C)cn2)[C@H](C)CN([C@@H](C)CO)C(=O)c2cc(NC(=O)c3ccccc3)ccc2O1
→ -7.1	-77.9[16.7 µM]
- CC(C)C#Cc1cnc2c(c1)C(=O)N([C@@H](C)CO)C[C@@H](C)[C@@H](CN(C)C(=O)Cc1ccncc1)O2
→ -7.7	6.4[16.7 µM]
- C[C@@H]1CCCCO[C@@H](CN(C)Cc2ccc(C(=O)O)cc2)[C@@H](C)CN([C@@H](C)CO)C(=O)c2cc(NS(=O)(=O)c3ccc(F)cc3)ccc2O1
→ 42.0	-4.1[16.7 µM]
- Cc1ccccc1NC(=O)Nc1ccc2c(c1)C(=O)N(C)[C@H]1CC[C@@H](CC(=O)O)O[C@H]1CO2
→ -5.1	13.2[16.7 µM]

No new results follow: entries from further up.
Every second line gives: Yeast UUG start	HIV Env fusion
- Cc1noc(C)c1NC(=O)Nc1cccc2c1O[C@H](CN(C)Cc1ccc(Oc3ccccc3)cc1)[C@@H](C)CN([C@@H](C)CO)C2=O
→ 1.2	5.9[16.7 µM]
- C[C@H]1CCCCO[C@@H](CN(C)S(C)(=O)=O)[C@@H](C)CN([C@@H](C)CO)C(=O)c2cc(N(C)C)ccc2O1
→ -17.7	-14.5[16.7 µM]

(next part)
Every second line gives: Yeast UUG start	HIV Env fusion
- C[C@@H]1CN([C@@H](C)CO)S(=O)(=O)c2ccc(-c3cncnc3)cc2O[C@H]1CN(C)Cc1cncnc1
→ -7.6	7.2[16.7 µM]
- O=C(O)C[C@@H]1C[C@H]2c3cc(NC(=O)C4CCC4)ccc3O[C@H]2[C@H](CO)O1
→ 16.4	5.6[16.7 µM]
- C[C@@H]1CN([C@H](C)CO)C(=O)Cc2cc(NS(=O)(=O)c3ccc(F)cc3)ccc2O[C@@H]1CN(C)S(=O)(=O)c1ccc(F)cc1
→ 22.4	15.9[16.7 µM]
- C[C@@H]1CN([C@@H](C)CO)C(=O)c2cccc(NC(=O)Nc3ccccc3)c2O[C@@H]1CN(C)C
→ -1.8	-11.3[16.7 µM]
- O=C(C[C@H]1CC[C@H]2[C@@H](COC[C@H](O)CN2C(=O)Nc2ccc(Cl)cc2)O1)NCC1CCCCC1
→ 1.1	7.6[16.7 µM]
- CCNC(=O)Nc1ccc2c(c1)C(=O)N(C)[C@@H]1CC[C@@H](CC(=O)NCC3CCCCC3)O[C@H]1CO2
→ 45.7	-26.7[16.7 µM]
- C[C@@H]1CN([C@@H](C)CO)C(=O)c2cc(NS(=O)(=O)c3ccc(Cl)cc3)ccc2O[C@@H](C)CCCCO[C@@H]1CN(C)CC1CCCCC1
→ 35.0	5.4[16.7 µM]
- C[C@@H]1CCCCO[C@@H](CN(C)Cc2ccccc2)[C@@H](C)CN([C@@H](C)CO)C(=O)c2cc(NC(=O)Nc3ccc(C(F)(F)F)cc3)ccc2O1
→ 6.0	30.7[16.7 µM]
- Cc1ccc(S(=O)(=O)N(C)C[C@@H]2OCCCC[C@@H](C)Oc3ccc(NC(=O)Nc4ccc5c(c4)OCO5)cc3C(=O)N([C@H](C)CO)C[C@H]2C)cc1
→ -6.3	-5.1[16.7 µM]
- C[C@@H]1CCCCO[C@@H](CN(C)C)[C@H](C)CN([C@@H](C)CO)C(=O)c2cc(NS(=O)(=O)c3ccc(F)cc3)ccc2O1
→ 6.0	29.2[16.7 µM]
- COc1ccc(S(=O)(=O)Nc2ccc3c(c2)C(=O)N([C@H](C)CO)C[C@@H](C)[C@@H](CN(C)S(=O)(=O)c2ccc(F)cc2)OCCCC[C@H](C)O3)cc1
→ -2.0	-2.9[16.7 µM]
- C[C@H]1CN([C@@H](C)CO)C(=O)Cc2cc(N(C)C)ccc2O[C@@H]1CN(C)C(=O)Nc1ccc2c(c1)OCO2
→ -6.4	-2.2[16.7 µM]
- CCNC(=O)C[C@H]1CC[C@H]2[C@@H](COc3ccc(NC(=O)Nc4ccc(C)cc4)cc3C(=O)N2C)O1
→ 9.8	1.9[16.7 µM]
- CCNC(=O)C[C@H]1CC[C@H]2[C@H](COc3ccc(NC(=O)Cc4cccs4)cc3C(=O)N2C)O1
→ -4.3	49.3[16.7 µM]
- CNC[C@H]1Oc2cc(C#CC3CCCCC3)ccc2S(=O)(=O)N([C@H](C)CO)C[C@@H]1C
→ 160.5*	8.1[16.7 µM]
- O=C(C[C@H]1CC[C@H]2[C@@H](COC[C@@H](O)CN2CC2CCOCC2)O1)NCC1CC1
→ 0.6	10.8[16.7 µM]
- Cc1noc(C)c1NC(=O)N(C)C[C@@H]1Oc2ncc(C#CCN(C)C)cc2C(=O)N([C@H](C)CO)C[C@@H]1C
→ 17.0&4.7	-6.8&-32.3[16.7 µM]
- C[C@H](CO)N1C[C@H](C)[C@H](CN(C)C(=O)NC2CCCCC2)OCCCC[C@H](C)Oc2ccc(N(C)C)cc2C1=O
→ 30.5	-24.6[16.7 µM]
- C[C@H]1CN([C@@H](C)CO)C(=O)Cc2cc(NC(=O)CCC(F)(F)F)ccc2O[C@@H]1CN(C)Cc1ccccc1
→ -11.2	29.1[16.7 µM]
- C[C@@H]1CCCCO[C@H](CN(C)C(=O)CCC(F)(F)F)[C@@H](C)CN([C@H](C)CO)C(=O)c2cc(N(C)C)ccc2O1
→ -1.9	-1.2[16.7 µM]
- COc1ccc(-c2ccc3c(c2)O[C@H](CN(C)C(C)=O)[C@@H](C)CN([C@@H](C)CO)S3(=O)=O)cc1
→ 20.0	0.4[16.7 µM]
- C[C@H](CO)N1C[C@H](C)[C@H](CN(C)C(=O)C2CC2)Oc2cc(/C=C/c3ccccc3)ccc2S1(=O)=O
→ -6.6	6.0[16.7 µM]
- C[C@@H]1CN([C@H](C)CO)S(=O)(=O)c2ccc(C#CC3(O)CCCC3)cc2O[C@@H]1CN(C)C(=O)Cc1ccncc1
→ -6.4	-13.0[16.7 µM]
- C[C@@H]1CN([C@@H](C)CO)C(=O)c2cc(C#CC3(O)CCCC3)cnc2O[C@@H]1CN(C)C(=O)CC1CC1
→ 0.2	-14.8[16.7 µM]
- COCC(=O)N(C)C[C@H]1Oc2cc(C#CCN(C)C)ccc2S(=O)(=O)N([C@H](C)CO)C[C@H]1C
→ 3.8	0.2[16.7 µM]
- C[C@@H]1CN([C@@H](C)CO)C(=O)c2cc(NS(=O)(=O)c3ccc(Cl)cc3)ccc2O[C@@H](C)CCCCO[C@H]1CN(C)S(=O)(=O)c1ccc(F)cc1
→ 2.4	-34.1[16.7 µM]
- COCC(=O)N(C)C[C@H]1Oc2ncc(-c3ccccc3OC)cc2C(=O)N([C@@H](C)CO)C[C@@H]1C
→ 16.4	-8.4[16.7 µM]
- C[C@@H]1CCCCO[C@H](CN(C)S(=O)(=O)c2cn(C)cn2)[C@@H](C)CN([C@@H](C)CO)C(=O)c2cc(NC(=O)C3CCCCC3)ccc2O1
→ 3.5	-1.3[16.7 µM]
- CNC[C@@H]1Oc2cc(-c3cccnc3)ccc2S(=O)(=O)N([C@@H](C)CO)C[C@H]1C
→ -11.2	-9.3[16.7 µM]
- C[C@@H]1CN([C@H](C)CO)C(=O)c2cc(NS(=O)(=O)c3ccc(F)cc3)ccc2O[C@H]1CN(C)C(=O)Nc1cccc2ccccc12
→ -5.2	-39.2[16.7 µM]
- COC(=O)C[C@H]1CC[C@@H]2[C@H](COc3ccc(NC(=O)Nc4cccc(Cl)c4)cc3C(=O)N2C)O1
→ 13.2	22.1[16.7 µM]
- COc1ccc(NC(=O)Nc2ccc3c(c2)C(=O)N([C@H](C)CO)C[C@H](C)[C@@H](CN(C)S(=O)(=O)c2ccc(C)cc2)OCCCC[C@H](C)O3)cc1
→ 25.8	-0.7[16.7 µM]
- C[C@H](CO)N1C[C@H](C)[C@H](CN(C)C(=O)CN(C)C)Oc2cc(-c3ccncc3)ccc2S1(=O)=O
→ 6.8	-17.3[16.7 µM]

Among those listed so far, these contain a COOH group.
Every second line gives: Yeast UUG start	HIV Env fusion
- C[C@@H]1CCCCO[C@@H](CN(C)Cc2ccc(C(=O)O)cc2)[C@@H](C)CN([C@@H](C)CO)C(=O)c2cc(NS(=O)(=O)c3ccc(F)cc3)ccc2O1
→ 42.0	-4.1[16.7 µM]
- Cc1ccccc1NC(=O)Nc1ccc2c(c1)C(=O)N(C)[C@H]1CC[C@@H](CC(=O)O)O[C@H]1CO2
→ -5.1	13.2[16.7 µM]
- O=C(O)C[C@@H]1C[C@H]2c3cc(NC(=O)C4CCC4)ccc3O[C@H]2[C@H](CO)O1
→ 16.4	5.6[16.7 µM]

High-throughput results: PubChem BioAssay, Broad Institute

This is a subset; the hit share may differ from the screen's.
